Bioassay records deposited in PubChem BioAssay by National Center for Advancing Translational Sciences (NCATS).
Prx2 Sm inh – Schistosoma Mansoni Peroxiredoxins (Prx2); Schistosoma mansoni peroxiredoxin 2 (Prx2); S. mansoni Prx2 activity coupled to TGR/GSH (TGR is thioredoxin glutathione reductase), NADPH fluorescence loss, qHTS; some inactives read as strong as hits; Potency, µM; 65,000 compounds, 0.07% hits; AID 448, 2006; active means full or partial inhibition curve with a strong effect at the top dose; inconclusive means weaker partial or single-point curve; inactive means no accepted curve; further: series up to 57 µM; many of its hits are not listed in these tables
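Purified S. mansoni TGR and Prx2 in pH 7.4 phosphate buffer with EDTA and Tween-20 were preincubated with compounds for 15 min. Further NADPH/GSH was added, then a 2.5 mM H2O2 aliquot initiated turnover, followed kinetically by NADPH fluorescence.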
Anthrax LT inh – qHTS Assay for Anthrax Lethal Toxin Internalization; Cells, anthrax lethal toxin internalization, FRET ratio (460/530); Potency, µM (top dose mostly 40 µM), inactives show top-dose activity change, negative = inhibition, usual class: inhibitors; 70,000 compounds, 0.67% hits; active = well fitted falling ratio curve with the 530 nm signal flat; inconclusive = other ratio curves, or a change in one channel alone; inactive = flat curves in the ratio and both channels; the % refers to the ratio; further: on the % scale 0 is the no-effect control and ±100 the full control effect; nearly all actives have a fitted effect of over 50% in size; tested in ME-180 cells; beta-lactamase reporter
Starred values were filed as active, the others as inactive; ? = inconclusive; / = no result given; & = joins results of further samples; [ ] = dose if it differs, or a comment. Potency means the concentration at half of the fitted maximal effect.

#	Structure	Prx2 Sm inh	Anthrax LT inh
1	CN(C)C(=O)c1ccc(-c2cc(-n3ccnc3)ncn2)cc1	>57	-5%
2	CCCC[C@H]1C(=O)N(c2ccccc2)N(c2ccc(O)cc2)C1=O	>57	-4%[3.58 µM]
3	CCOC(=O)c1ccc2[nH]cc(C(C)=O)c(=O)c2c1	>57	4%
4	COc1ccc(S(=O)(=O)CCc2nc3ccccc3s2)cc1	>57	-3%
5	O=C(Nc1cccc(F)c1)N1CC2(CCN(C(=O)c3ccncc3)CC2)C1	>57	7%
6	CCN(CCCNC(=O)C1CCN(S(=O)(=O)c2c(C)[nH]c(=O)[nH]c2=O)CC1)c1cccc(C)c1	>57	0%
7	CC1Cc2ccccc2N1C(=O)CSc1nnc2n1C(C)(C)Cc1ccccc1-2 (stereo not given)	>57	?
8	O=c1[nH]c(=O)n(CCO)c2nnn(Cc3ccccc3)c12	>57	3%
9	CCCc1cc(=O)n2[nH]c(CCc3ccccc3)nc2n1	>57	8%
10	Cn1c(C(=O)N2CCC(C(=O)N3CCC4(CC3)OCCO4)CC2)cc2sccc21	>57	7%
11	CCOc1ccc2[nH]c(C)c(CN3CCCCC3)c(=O)c2c1	>57	0%
12	COc1ccccc1-c1nccc(Nc2ccc(F)cc2)n1	>57	-3%
13	CCN(CC)C(=O)C1CCN(Cc2ccc(Br)cc2)CC1	>57	-1%
14	CN(C)c1ccc(C(=C2C=CC(=[N+](C)C)C=C2)c2ccccc2)cc1	>57	?
15	CO[C@H]1COC(=O)[C@H](C)NC(=O)[C@@H](C)COC(=O)C/C=C\[C@@H]1C	/	-5%[8 µM]
16	CCC(C)NS(=O)(=O)c1cccs1 (stereo not given)	>57	4%
17	c1ccc(CC2CNc3ccccc3CN2)cc1 (stereo not given)	>57	/
18	COc1ccccc1-n1c(CNC(=O)c2ccccc2)nnc1SCC(=O)Nc1nnc(C)s1	>57	4%
19	O=c1cc(-c2ccccc2O)oc2cc(O)cc(O)c12	>57	-14%
20	Cc1cccc(C)c1NC(=O)CSCCO	>57	1%
21	O=C(C1CCN(S(=O)(=O)c2cccs2)CC1)N1CCCCCC1	>57	-23%
22	NCCc1ccc(O)cc1	>57&>57	-2%&-1%&3%
23	O=C(NC1CCC(NC(=O)C(F)(F)C(F)F)CC1)C(F)(F)C(F)F (stereo not given)	>57	2%
24	COc1ccc(OC)c(NC(=O)C(CC(C)C)NC(=O)C2CCCCC2)c1 (stereo not given)	>57	-9%
25	COc1ccc2[nH]c(=O)c(CN(Cc3nnnn3Cc3ccco3)C3CCCCC3)cc2c1	>57	-15%
26	COc1ccc(NC(=O)CSC2=NC(=O)CC(C)=N2)cc1	>57	-2%
27	O=C(c1ccco1)N1CCC2(CCN(Cc3ccccc3)CC2)CC1	>57	-5%
28	CS(=O)(=O)N(CC(=O)NCc1ccc2c(c1)OCO2)Cc1ccccc1	>57	2%
29	O=C(Oc1ccccc1)N1CCC2(CCCN(Cc3ccccc3)C2)CC1	>57	-15%
30	CC1CCN(Cc2nc3c(c(=O)n(C)c(=O)n3C)n2CCc2ccccc2)CC1	>57	-5%
31	CCCCC1CN2C(CCC(C)C2c2ccc(Br)cc2)C(=O)O1 (stereo not given)	/	-11%&-9%&-6%[8 µM]
32	Cc1ccc2c(NC(=O)C3CC3)cccc2n1	>57	-11%
33	Cc1scc(C(=O)Nc2ccon2)c1-c1ccccc1	>57	/
34	Cc1cccc(C(=O)NC2CC3CCCC(C2)N3C(=O)NC2CCCCC2)c1 (stereo not given)	>57	-15%
35	Cc1onc(-c2ccccc2Cl)c1C(=O)NCc1ccco1	>57	-10%
36	COc1ccc(-c2cc(C(F)F)n3ncc(C(=O)N4CCSCC4)c3n2)cc1	>57	1%
37	CC(=O)C1=C(O)C=C(c2ccco2)CC1c1ccco1 (stereo not given)	>57	-6%
38	COc1ccccc1CNC(=O)c1ccc(CNc2c(N3CCCC3)c(=O)c2=O)cc1	>57	-1%
39	CC1(C)[N+]([O-])=C2C(=[N+]([O-])C1(C)C)c1ccccc1/C2=N\O	>57	?
40	COC(=O)COc1ccc(S(=O)(=O)Nc2ccc3c(c2)OCO3)cc1	>57	?
41	COc1ccc2c(c1)c(C(=O)N1CCN(C)CC1)c(C)n2-c1ccccc1	>57	-6%
42	O=C(Nc1ccccc1)N1CCCC2(CCN(S(=O)(=O)c3ccccc3)CC2)C1	>57	?
43	CCN(CC)CCCN1C(=O)c2oc3ccccc3c(=O)c2C1c1cccnc1 (stereo not given)	>57	?
44	Clc1ccccc1-c1ccc2ncnc(NCc3cccnc3)c2c1	>57	-26%
45	COC(=O)c1c(NC(=O)C2CC2)sc2c1CCN(C(C)=O)C2	>57	?
46	CN1C(=O)C(Cc2ccsc2)C(=O)N(C)C1=O	>57	-17%
47	CCCc1cc(=O)[nH]c(SCC(=O)c2cc(C)n(CCOC)c2C)n1	>57	-7%
48	O=C1c2ccccc2C(Nc2cccnc2)N1Cc1ccccc1Cl (stereo not given)	>57	-15%
49	CS(=O)(=O)N1CCN(C(=O)c2cc(-c3ccncc3)nc3ccc(Cl)cc23)CC1	>57	-22%
50	Cc1cccc(C(=O)NCN2CCN(c3ccccc3C#N)CC2)c1	>57&>57	-16%&-18%
51	O=S(NC1CCCCC1)C12CC3CC(CC(C3)C1)C2 (stereo not given)	/	17%
52	O=C(CSc1nc2ccccc2n1CC(=O)N1CCCC1)NCc1ccc2c(c1)OCO2	>57	8%
53	CCOc1cc(-c2conc2N)cc(OCC)c1OCC	>57	7%
54	O=C(CN1CCN(Cc2ccccc2)CC1)Nc1ccc(Cl)cn1	>57	-14%
55	CC(=O)Nc1nc(CC(C)C)cc2c1c(=O)oc1ccccc12	>57	8%
56	Cc1nnc(NC(=O)CSc2nnc3scc(-c4ccc(C)c(C)c4)n23)s1	>57	-18%
57	COC(=O)CNC(=O)Cn1cnc2sc(C)c(S(=O)(=O)N3CCC(C)CC3)c2c1=O	>57	-10%
58	CCC(C)(C)NC(=O)C(c1ccc(F)cc1)N(Cc1ccco1)C(=O)c1snc(C(N)=O)c1N (stereo not given)	>57	17%
59	COc1ccc(S(=O)(=O)N2CCOCC2)c(Cl)c1Cl	>57	-9%
60	CCOc1ccc2[nH]c(=O)c(C(c3nnnn3C3CCCCC3)N3CCN(CC)CC3)cc2c1 (stereo not given)	>57	-14%

Further compounds follow.
#	Structure	Prx2 Sm inh	Anthrax LT inh
61	COCCCNC(=O)Cn1cc2c(n1)CCC(C)C2 (stereo not given)	>57	3%
62	CC(=O)Nc1cccc(N2C(=O)CC(N3CCC(C(=O)N4CCCCC4)CC3)C2=O)c1 (stereo not given)	>57	-5%
63	CC(=NCc1ccc2c(c1)OCO2)c1c(O)[nH]c(=O)[nH]c1=O	>57	-7%
64	CCOc1ccc(NC(=O)CC2CC(C)(C)OC2=O)cc1 (stereo not given)	>57	-10%
65	O=C1C2CC=CCC2C(=O)N1CC1CCCO1 (stereo not given)	>57	-12%
66	O=C(O)C1CCC(CNCc2cccnc2)CC1 (stereo not given)	>57	?
67	CCCCn1c(N)c(C(=O)NCCN2CCOCC2)c2nc3ccccc3nc21	>57	?
68	COc1ccc(OC)c(C2=NOC(C(=O)Nc3cccc(C(C)=O)c3)C2)c1 (stereo not given)	>57	12%
69	COc1cc(C)c(C(C)C)cc1S(=O)(=O)N1CCN(C)CC1	>57	-4%
70	CCN1C(=O)C(O)(CC(=O)c2ccc(-n3cccc3)cc2)c2ccccc21 (stereo not given)	>57	-11%
71	FC(F)(F)Oc1ccc(Nc2nc3ccccc3o2)cc1	>57	?
72	CCOC(=O)C1CCN(C(=O)CSc2cc(=O)n(C)c3ccccc23)CC1	>57	?

Random excerpt: 2 entries already listed.
#	Structure	Prx2 Sm inh	Anthrax LT inh
64	CCOc1ccc(NC(=O)CC2CC(C)(C)OC2=O)cc1 (stereo not given)	>57	-10%
69	COc1cc(C)c(C(C)C)cc1S(=O)(=O)N1CCN(C)CC1	>57	-4%

Whole records as entered above.
Entry for `CCCCC1CN2C(CCC(C)C2c2ccc(Br)cc2)C(=O)O1` (stereo not given) : Prx2 Sm inh: /; Anthrax LT inh: -11%&-9%&-6%[8 µM]
Entry for `Clc1ccccc1-c1ccc2ncnc(NCc3cccnc3)c2c1` : Prx2 Sm inh: >57; Anthrax LT inh: -26%

New compounds follow.
#	Structure	Prx2 Sm inh	Anthrax LT inh
73	CCOC(=O)N1CCN(S(=O)(=O)c2ccc(Br)s2)CC1	>57	?
74	COc1ccc2c(c1)CCc1c(C(=O)N3CC4(C)CC3CC(C)(C)C4)noc1-2 (stereo not given)	>57	-8%
75	O=C(OCCN1C(=O)c2ccccc2C1=O)c1cc(S(=O)(=O)N2CCOCC2)ccc1Cl	>57	?
76	COC(=O)c1cccc(S(=O)(=O)N2CCC(NC(=O)NC34CC5CC(CC(C5)C3)C4)CC2)c1	>57	6%
77	O=C(O)c1cc(=O)c2ccc(Cl)cc2[nH]1	>57&>57	?
78	Cc1nnc(NC(=O)C2CCN(c3cnccn3)CC2)s1	>57	0%
79	C=C(C)CN(CC)C(=O)CSc1nc2ncc(Cl)cc2[nH]1	>57	2%
80	COc1cccc(-c2ccc(-c3noc(-c4ccccc4F)n3)c(OC)n2)c1	>57	-9%
81	Cc1cc(C)c2c3c(c(-c4ccccc4)n2n1)c(=O)n(C)c(=O)n3C	/	0%
82	O=C(CSc1ncccn1)NCc1ccccc1Cl	>57	4%
83	C=CCN(CC=C)C(=O)Cc1ccc(F)cc1	>57	-6%
84	COc1cccc(C(=O)OCn2nnc3ccccc3c2=O)c1	>57	5%
85	COc1cccc(Nc2ncc3nc(-c4cc(F)cc(F)c4)c(=O)n(CCC#N)c3n2)c1	>57	?
86	CCCCOC(=O)c1ccccc1C(=O)OCCCC	/	?
87	CC(C)(C)c1ccc(C(=O)N2CCC(C(=O)NCC3CCCO3)CC2)cc1 (stereo not given)	>57	-9%
88	Cc1ccc(-n2c3c(cc(C(=O)O)c2=O)C(=O)CC(C)(C)C3)cc1	>57	-12%
89	Nc1nc(-c2ccccc2)cc(N2CCCCC2)n1	>57	-15%
90	C=CCn1c(C(C)NC(=O)CCC)nc2ccccc21 (stereo not given)	>57	-5%
91	Cc1ccc(CN2CC3CC(C2)c2cccc(=O)n2C3)cc1 (stereo not given)	>57	4%
92	Cn1nnnc1SCC(=O)N(C1CCCCC1)C1CCCCC1	>57	8%
93	Cc1ccc2c(C)nc(NC3=NCN(Cc4ccccc4)CN3)nc2c1	>57	8%
94	CS(=O)(=O)c1ccc2nc(N)sc2c1	>57	-2%
95	O=C1c2ccccc2C(=O)N1Cc1nc2ccccc2o1	>57	-15%
96	CCOc1ccc(Nc2nc(Cc3nnc(SCC(=O)O)o3)cs2)cc1	>57	-2%
97	COc1ccccc1-n1c(SCC(=O)Nc2ccccc2C)nc(O)cc1=O	>57	8%
98	O=C(Nc1ccc2ccccc2c1)c1cnccn1	>57	-19%
99	NC(=O)c1nc(N2CCOCC2)nc(N2CCOCC2)n1	>57	3%
100	COc1ccc2cc3cc(C(=O)NCCCN4CCOCC4)oc3nc2c1	>57	?
101	COc1ccccc1-n1cnc(N)c1C(=O)c1ccccc1	>57	-8%
102	CCOC(=O)c1cc(C#N)c(NCc2ccccc2)nc1C	>57	7%
103	O=C(c1ccco1)N(CCCN1CCOCC1)c1nc(-c2ccc(F)cc2)cs1	>57	?
104	NCC[C@H](O)C(=O)N[C@H]1C[C@@H](N)[C@@H](O[C@H]2O[C@@H](CN)[C@@H](O)[C@@H](O)[C@@H]2O)[C@@H](O)[C@@H]1O[C@H]1O[C@@H](CO)[C@@H](O)[C@@H](N)[C@@H]1O	>57	3%[3.58 µM]
105	COC(=O)C(NC(=O)c1ccccc1)=C1C=C(C)OC(C)=C1	>57	-31%
106	COc1ccc(-c2cc(C(=O)NC(C)C)no2)cc1	>57	14%
107	CC(CCc1ccccc1)NCc1ccncc1 (stereo not given)	>57	-27%
108	CSc1nnc2c(n1)OC(C1CC=C(C)CC1)Nc1ccccc1-2 (stereo not given)	/	1%
109	CCOc1ccc(-c2cn(CCC#N)cn2)cc1	>57	-13%
110	O=C(NCCc1ccc2c(c1)OCO2)C1CCN(S(=O)(=O)c2ccc(Cl)cc2)CC1	>57	-1%
111	CCCN(CCC)Cc1c(C(=O)OCC)nnn1-c1nonc1N	>57	-14%
112	C=CCOc1ccc(C2N3CC4(CC)CN2CC(CC)(C3)C4=O)cc1 (stereo not given)	>57	8%
113	CCC(C)n1c(-c2cccs2)nc2nc3ccccc3nc21 (stereo not given)	>57	?
114	O=C(Cn1ncc2c1-c1ccccc1OC2)Nc1ccc(S(=O)(=O)N2CCCCC2)cc1	>57	?
115	O=C(Cn1cnc2c(cnn2-c2ccc(F)cc2)c1=O)NCCc1ccccc1	>57	3%
116	O=C1CC(c2ccco2)Cc2nc(N3CCN(Cc4ccc5c(c4)OCO5)CC3)ncc21 (stereo not given)	>57	10%
117	CN1CC(=O)N(C)c2ncn(Cc3ccccc3)c2C1=O	>57	-2%
118	COc1cc(C(=O)NCCc2ccc3c(c2)OCCO3)ccc1OCC(=O)N1CCOCC1	>57	1%

These rows are one share of the data; count on the stated rates, not on these rows.
